Screening data deposited in PubChem by National Center for Advancing Translational Sciences (NCATS).
Menin-MLL FL inh = menin-MLL binding inhibition, fluorescein peptide. AID 1766. Fluorescence polarization, fluorescein-MLL peptide displacement from menin. FP activity change, % at 61.4 µM. 290,000 tested, under 10 active; inconclusive = falling polarisation curve, or a change in total fluorescence; inactive = total fluorescence flat and polarisation flat or rising; no compound was filed as active; the % refers to the polarisation; negative = inhibition;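 further: % of control where 0% means no effect; inhibitors lower the polarisation; unlabelled MLL peptide was the positive control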
ClpP mod = qHTS Assay for Activators of ClpP; Potency, µM (titrated, usually from 57.5 µM), inactives show top-dose activity change, negative = active; ATP-dependent Clp protease proteolytic subunit (Bacillus subtilis (strain 168)), P80244; AID 651965, 2013; 1.9% of 340,000 active; purified B. subtilis ClpP, FRET peptide cleavage, 20 min; active = well fitted falling curve with a large enough effect; inconclusive = small, poorly fitted or top-dose-only effect; inactive = no such curve, though single readings can be large or run the other way; further: potency means the concentration at half of the fitted maximal effect; the source files actives as falling curves though it sought activators and does not explain the sign; nearly all actives have a fitted effect of over 65% in size; many hits overshoot -100%
Target sequence (P80244 whole entry, looked up): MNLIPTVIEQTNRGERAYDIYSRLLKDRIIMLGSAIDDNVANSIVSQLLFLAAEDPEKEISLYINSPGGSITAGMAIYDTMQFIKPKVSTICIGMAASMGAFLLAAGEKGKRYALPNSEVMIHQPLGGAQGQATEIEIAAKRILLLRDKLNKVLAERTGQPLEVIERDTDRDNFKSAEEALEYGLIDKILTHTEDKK
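Purified B. subtilis ClpP, 10 microg/mL final in Tris/HCl pH8 with KCl, BSA, glycerol and Tween-20, cleaved an Abz/nitrotyrosine-quenched decapeptide. Fluorescence (ex 320, em 430) was read at 0 and 20 min at room temperature. Delta was normalized to 5.8 microM ADEP and DMSO/no-enzyme controls.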
gsp antagonist = antagonists of gsp mutant (McCune-Albright syndrome); gsp-mutant cells, cAMP HTRF, 30 min; control for the full effect not named in the record; Potency, µM (doses to about 76.9 µM), for the others: at the highest dose activity change, negative = inhibition, hits mostly inhibitors; 0.4% of 340,000 active; AID 624288; active = falling curve of any shape with a large fitted effect; inconclusive = falling curve, mostly with a smaller effect; inactive = flat or rising curve; cell line not stated here;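 further: intracellular cAMP measured with PDE inhibitor Ro 20-1724 present during compound exposure; potency means the concentration at half of the fitted maximal effect; on the % scale 0 is the no-effect control and ±100 the full control effect; nearly all actives have a fitted effect of over 65% in size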
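G418-selected cells were plated in DMEM/10% FBS for 16-24 h at 37C, then treated with compounds plus the PDE inhibitor […] (300 uM solution added) for 30 min at 37C. Intracellular cAMP was measured by HTRF after 30 min lysis at room temperature.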
TRPML1 blocker = inhibitors of human TRPML1 channel; 0.02% of 390,000 active; TRPML1-inducible cells, Ca2+ dye fluorescence, FDSS; stronger effect = lower value; inhibition of EC80 agonist-evoked calcium signal; Q9GZU1; AID 624415; activity change, negative = inhibition, % (no concentration beside the values); in the data active means activity change below about -50%; inconclusive means about -30% to -50%; inactive means above about -30%;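 further: stimulus is agonist 54-4 at its EC80 concentration; on the % scale 0 is the no-effect control and ±100 the full control effect; compound concentration not given in the record; the text of the record puts the active cut at -80%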
Target sequence (Q9GZU1 whole entry, looked up): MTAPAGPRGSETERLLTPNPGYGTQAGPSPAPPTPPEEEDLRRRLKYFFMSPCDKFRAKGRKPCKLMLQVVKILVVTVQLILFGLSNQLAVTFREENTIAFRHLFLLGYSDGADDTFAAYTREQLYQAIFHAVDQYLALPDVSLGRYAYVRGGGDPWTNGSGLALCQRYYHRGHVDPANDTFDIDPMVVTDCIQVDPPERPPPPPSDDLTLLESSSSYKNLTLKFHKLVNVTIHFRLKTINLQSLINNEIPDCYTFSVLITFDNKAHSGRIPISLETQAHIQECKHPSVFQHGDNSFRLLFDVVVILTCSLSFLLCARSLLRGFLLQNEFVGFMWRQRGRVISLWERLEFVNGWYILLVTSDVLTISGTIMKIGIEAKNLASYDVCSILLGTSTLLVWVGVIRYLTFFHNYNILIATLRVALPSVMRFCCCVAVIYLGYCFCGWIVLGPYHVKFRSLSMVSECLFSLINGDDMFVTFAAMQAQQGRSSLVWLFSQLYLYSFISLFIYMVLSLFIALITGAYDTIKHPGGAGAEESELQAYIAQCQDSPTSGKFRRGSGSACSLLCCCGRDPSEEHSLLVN
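Tet-induced TRPML1-DL cells loaded with Ca8 no-wash calcium dye were read kinetically on FDSS. Compound addition was followed by EC80 agonist 54-4 (4 uM final); inhibition was read over 110 s.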
TRPML1 ag = human mucolipin-1 channel agonism | Q9GZU1 | AID 624414 | 0.12% of 410,000 active | activation, % (concentration not given with the values) | TRPML1-expressing cells, Ca2+ dye fluorescence, FDSS; host cell line not named in the record; reference of the full effect not given here; in the data active = activation above about 50%; inconclusive = about 30% to 50%; inactive = below about 30%; further: 0% is about no effect; the text of the record puts the active cut at 80%
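In this qHTS format, compounds were pin-transferred onto Ca8-dye-loaded TRPML1-DL cells induced with Tet overnight, and intracellular Ca2+ fluorescence was recorded kinetically for 110 s after a 10 s baseline. A subsequent 4uM final 54-4 (EC80) addition followed by a second 110 s read served as the antagonist phase.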
gsp ag = activates gsp, the McCune-Albright syndrome mutation. 0.13% of 340,000 active. gsp mutant cells, cAMP HTRF, 30 min; control for the full effect not named in the record. Potency, µM (highest dose often 76.9 µM), for inactives: top-dose activation (cAMP increase), actives largely listed as activators. AID 624287; active = well fitted activation curve with a large enough effect; inconclusive = small, poorly fitted or top-dose-only effect, or another doubt; inactive = no such curve, though single readings can be large or run the other way; cell line not stated here;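 further: phosphodiesterase inhibitor Ro 20-1724 added with compounds to block cAMP breakdown; potency means the concentration at half of the fitted maximal effect; nearly all actives have a fitted effect of over 60% in size; about a fifth of the inactives were tested at one dose only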
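Cells in DMEM/10% FBS with G418 were pretreated with compounds in DMSO plus […] (300 uM stock) for 30 min at 37C. cAMP was measured by HTRF (cAMP-d2 plus anti-cAMP antibody-K) after 30 min at room temperature.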
Active calls of the source: *; u = inconclusive; x = not tested or not shown; & = joins results of further samples; [ ] = remark or other dose.

SMILES	Menin-MLL FL inh	ClpP mod	gsp antagonist	TRPML1 blocker	TRPML1 ag	gsp ag
Cc1ccc(Cl)cc1NC(=O)COC(=O)CSc1ccccc1	x	1.5%	-2.6%	21.5	1.8	5.9%[15.4 µM]
O=[N+]([O-])c1cccc(-c2nnc3ccccn23)c1	-1.8	-3.2%	10.6%	x	x	12.6%
O=S(=O)(c1ccc(-c2nnco2)cc1)N1CCCCC1	9.4	x	6.5%	29.8	4.0	u
O=C(CCC1CC(=O)Nc2ccccc21)NCc1ccc(F)cc1 (stereo not drawn)	6.5	-1.1%	-8.5%	0.5	0.0	u
CCCSC1=C(C#N)C(c2cc(OC)ccc2OC)CC(=O)N1 (stereo not drawn)	4.7	-1.1%	-0.9%	-5.1	-0.9	u
COc1ccc(C)cc1NC(=O)C1CC(=O)N(CCc2ccccc2)C1 (stereo not drawn)	3.0	-1.4%	-2.1%	43.8	-0.4	35.5%
CS(=O)(=O)Nc1ccccc1C(=O)OCC(=O)N1CCC(c2ccccc2)=N1	x	-15.5%	-7.5%	17.8	-0.4	-44.8%
COCCN(C(=O)c1ccc2c(c1)S(=O)(=O)N=C1CCCCCN12)c1c(N)n(CC(C)C)c(=O)[nH]c1=O	x	1.2%	19.1%	4.4	-0.6	16.9%
NS(=O)(=O)c1ccc(CCNC(=O)c2ccccc2F)cc1	3.0	-24.1%	12.2%	-5.5	1.1	1.1%
CC(NC(=O)c1cc2cc(Cl)ccc2oc1=N)c1ccccc1 (stereo not drawn)	u	u	-7.9%	-4.6	0.8	9.2%
COc1ccc(/C=N/Nc2cc(C)nc3ccccc23)cc1	-10.3	x	8.8%	-6.4	-0.3	-30.5%[inhibitor]
CCn1cc(C(=O)NCc2ccccc2Cl)c(=O)c2cc(S(=O)(=O)N3CCOCC3)ccc21	x	-4.3%	x	-6.4	0.5	x
COc1ccc(CNC(=O)C(CC(C)C)NC(=O)c2ccccc2C)cc1 (stereo not drawn)	-5.2	x	-31.5%	-2.1	-0.3	7.8%[15.4 µM]
CCOC(=O)c1sc(NC(=O)c2cc(-c3ccccc3C)nc3ccccc23)c(C#N)c1C	4.6	-2.5%	u	23.4	-0.8	8.8%
CCN1C=C(Cc2ccc(F)cc2)C2=C(C1)C(c1ccc(F)cc1)C(C#N)=C(N)O2 (stereo not drawn)	2.9	-7.3%	-31.3%	10.1	0.7	-1.5%
Cc1cccc(/C(N)=N/OC(=O)N2c3ccccc3Sc3ccccc32)c1	4.0	-2.1%	u	22.1	3.5	-2.3%
CCn1c(=O)cc(OCC(=O)Nc2cc(Cl)c(OC)cc2OC)c2ccccc21	x	0.3%	x	-1.5	-0.3	x
C/C(=C1/SC(N2CC(C)OC(C)C2)=NC1=O)c1ccccc1 (stereo not drawn)	3.8	-0.1%	u	-7.3	-0.6	2.9%
CCOC(=O)c1c(C)[nH]c(C(=O)COC(=O)/C=C/c2ccc(O)c(OC)c2)c1C	x	-15.5%	6.0%	39.8	0.0	6.9%
CC(C)=C1C2CCC1C1C(=O)N(NC(=O)c3ccco3)C(=O)C21 (stereo not drawn)	3.1	-1.3%	-3.5%	-4.9	0.0	-8.5%
CCC(=O)Nc1nc2ccccc2n1CCN(C)C	-1.2	-1.7%	5.1%	-10.0	0.2	20.9%
C/C(=N\OC(=O)c1ccc(F)cc1)c1nccs1	0.2	-1.2%	3.0%	-6.7	0.7	6.5%
CC(c1ccccc1F)n1cc(C(=O)NCCCc2nc3ccccc3[nH]2)nn1 (stereo not drawn)	0.0	x	7.1%	16.6	2.4	3.9%[15.4 µM]
O=C1c2cccc3cccc(c23)C(=O)N1CCCCCc1n[nH]c(=S)o1	-5.1	x	-22.4%	78.4	-0.6	-18.7%[15.4 µM]
Cc1ccc(C)c(S(=O)(=O)N2CCN(C(=O)[C@H](Cc3ccccc3)NC(=O)c3ccco3)CC2)c1	x	x	-13.1%	-15.8	0.4	3.4%
COC(=O)c1sccc1NC(=S)N1CCCC(C)C1 (stereo not drawn)	3.1	-4.1%	-10.9%	26.4	2.0	-46.9%[inhibitor]
O=C(c1cccc([N+](=O)[O-])c1)c1ccc2c(c1)OCCOCCOCCOCCO2	-1.1	-4.8%	-1.9%	-11.0	-0.6	-4.6%[15.4 µM]
O=C(CN1CCN(Cc2ccc(Cl)cc2)C1=O)NCCCN1CCN(c2ccc(F)cc2)CC1	1.4	-2.8%	-6.5%	-2.7	0.3	u
CC(C)COc1ccc(C(=O)Nc2ccc([N+](=O)[O-])cc2)cc1	-0.9	0.9%	-4.8%	7.1	-0.6	-2.2%[15.4 µM]
COC(=O)c1ccc(OC)c(Cn2c(=O)n(-c3ccc(C)cc3)c(=O)c3c2cnn3C)c1	x	-1.6%	x	-8.7	0.6	x
CCOC(=O)C1CCCN(Cc2c(Cl)cccc2Cl)C1 (stereo not drawn)	-7.0	-2.4%	-15.1%	-7.3	2.0	15.0%
O=C(NCc1cccc(Br)c1)c1ccc(-n2cnc3cccnc32)cc1	x	-7.6%	x	-12.5	0.2	x
CCOc1cc(C(=O)NCC(C)CN(C)C)cc(OCC)c1OCC (stereo not drawn)	1.4	-6.2%	11.9%	0.0	0.0	5.3%
CN(Cc1ccccc1)c1ncc(C=O)s1	-2.8	-6.1%	3.9%	13.0	0.4	u
O=C(OCc1nnc(-c2ccccc2)o1)c1ccc([N+](=O)[O-])o1	x	x	6.7%	17.3	0.4	-11.1%[15.4 µM]
COc1ccc(C2C(C(N)=O)=C(C)Nc3ncnn32)cc1 (stereo not drawn)	6.7	-3.9%	8.2%	-5.3	-0.3	1.2%
CSc1nc(C)c(CCOC(=O)c2cccc(Cl)c2)c(=O)[nH]1	7.0	-3.1%	-3.9%	20.2	2.3	6.3%
CCCc1cc(=O)[nH]c(SCC(=O)N2c3ccccc3NC(=O)C2(C)C)n1	x	-3.7%	-0.8%	0.4	0.3	u
Cc1cccc(C)c1NC(=O)Cn1c(=O)n(Cc2ccccc2Cl)c(=O)c2cccnc21	x	u	x	-7.4	-0.8	x
CCCN(CC(=O)Nc1ccccc1C)C(=O)C1CCN(S(=O)(=O)c2ccccc2C(F)(F)F)CC1	x	-0.9%	-8.3%	4.7	1.1	-2.7%[15.4 µM]
N=C(c1ccc([N+](=O)[O-])cc1)N1CCCCCC1	1.0	x	5.5%	16.0	-0.1	-45.4%[inhibitor]
Cc1cccc(C(=O)NCC(=O)OCC(=O)NC2CCCCC2)c1	x	x	9.5%	-8.4	-0.7	33.8%
N#Cc1cc(N2CCCCC2)c([N+](=O)[O-])cc1C#N	-2.5	-0.9%	7.2%	-3.3	-0.2	13.4%
Cc1ccc(C(CC(=O)N2CCCCC2)c2ccccc2)c(O)c1C (stereo not drawn)	-3.7	-1.0%	-9.7%	-15.5	3.0	3.9%
COc1ccc(-c2cc(C(=O)OCC(=O)N3CCOCC3)c3ccccc3n2)cc1	x	x	-11.8%	40.6	-0.8	25.1%
CCOc1cccc(C(=O)N2CCC(c3nc4ccccc4s3)CC2)c1	x	1.3%	x	-9.8	-0.8	x
Cc1cccc(C)c1NC(=O)/C(C#N)=C/c1cccs1	10.8	-0.4%	-17.6%	29.7	0.4	-2.7%
COCCOC(=O)C1=C(C)NC2=C(C(=O)CC(c3cccs3)C2)C1c1ccsc1 (stereo not drawn)	5.6	u	-4.5%	-11.0	-0.7	9.0%
C[C@H](CO)N1C[C@H](C)[C@H](CN(C)Cc2ccc(C(=O)O)cc2)OCc2ccccc2-c2c(n(C)c3ccccc23)C1=O	x	-1.4%	x	4.0	-0.3	u
CCCOc1ccc(N2CC(C(=O)Nc3cccc(Cl)c3Cl)CC2=O)cc1 (stereo not drawn)	x	-0.2%	x	-9.2	0.3	x
CC(C)CC1NC(=O)N(CC(=O)Nc2ccc(-c3ccccc3)cc2)C1=O (stereo not drawn)	x	-0.4%	-7.6%	-4.4	2.7	-8.4%
COc1ccc(Cc2nc(-c3ccc(-n4cccc4)cc3)no2)cc1OC	u	u	-23.7%	11.6	2.3	8.2%
CC(=O)Nc1ccn(C2OC(C(COC(C)=O)NC(=O)C(C)NC(=O)OC(C)(C)C)C(OC(C)=O)C2OC(C)=O)c(=O)n1 (stereo not drawn)	-4.9	x	x	-13.6	0.4	x
CCCCOC(=O)c1ccc(NC(=O)COC(=O)c2ccc3ncsc3c2)cc1	x	u	-0.5%	19.0	0.0	-0.3%
CCC1(CC)NC(=O)N(CC(=O)OCC(=O)Nc2cc(C)ccc2C)C1=O	-5.0	0.3%	1.5%	4.2	0.0	-1.3%
CCCCC(=O)NNC(=S)NC(=O)c1cccc([N+](=O)[O-])c1	u	-1.2%	-1.0%	-3.5	-0.4	15.2%
CCN(CC)S(=O)(=O)c1ccc2c(c1)N(CC(=O)NCc1ccco1)C(=O)CO2	0.3	0.1%	-0.8%	19.5	1.0	u
CS(=O)(=O)n1nc(-c2cccnc2)nc1NCc1ccccc1	-1.5	0.4%	0.4%	-1.2	-0.6	6.9%[15.4 µM]
O=C(NCc1ccccc1)OCCN1CCN(Cc2ccccc2)CCC1=O	-0.7&8.5	-0.1%	13.8%	0.9	-0.2	x
Cc1ccc(-c2nnn(CC(=O)N(C)C3CCCCC3)n2)o1	2.9	x	11.4%	18.9	-0.4	35.8%

Next part:
SMILES	Menin-MLL FL inh	ClpP mod	gsp antagonist	TRPML1 blocker	TRPML1 ag	gsp ag
O=C(Cc1cccs1)Nc1ccc(N2CCOCC2)cc1	15.3	1.6%	-0.4%	-1.2	-0.1	6.1%[15.4 µM]
COC(=O)Cc1ccc(NC(=O)c2ccccc2Cl)cc1	0.3	x	0.3%	-7.1	1.2	-24.1%[15.4 µM]
C=C(C)CNC(=S)N/N=C/c1ccccc1OCC(=O)O	-0.9	0.6%	4.5%	-0.1	-0.4	7.3%[15.4 µM]
O=C(CSc1nc2[nH]c(=O)cc(O)c2s1)NCCc1ccccc1	x	-1.3%	-2.9%	25.0	-0.3	u
Cc1c(N(C)S(=O)(=O)c2cc(C(=O)NCC3CCCO3)ccc2Cl)c(=O)n(-c2ccccc2)n1C (stereo not drawn)	x	x	1.7%	21.7	1.9	7.9%[15.4 µM]
O=[N+]([O-])c1cccc(-c2nc(-c3ccccn3)no2)c1	0.3	-0.5%	2.6%	-8.8	0.6	51.0%
O=C(CNC(=O)c1ccco1)NCc1nc2ccccc2[nH]1	2.7	0.8%	7.4%	4.7	-0.4	-13.1%
COc1c(O)cc2oc(-c3ccc(O)c(O)c3)cc(=O)c2c1O	-1.4&2.3	-0.2%	-10.9%	12.8	0.1	x
